FGF22 binding = binders of recombinant human FGF22 by thermal shift; Q9HCT0; SYPRO orange fluorescence; percent of sucrose octasulfate shift, DMSO zero; calls only at 9.99 µM; actives 1.5% (n = 340,000); AID 651658;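 active = melting point raised past a set limit in the mean and every replicate; inconclusive = no clear call; three in four hits are not shown here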
Target sequence (Q9HCT0 whole entry, looked up): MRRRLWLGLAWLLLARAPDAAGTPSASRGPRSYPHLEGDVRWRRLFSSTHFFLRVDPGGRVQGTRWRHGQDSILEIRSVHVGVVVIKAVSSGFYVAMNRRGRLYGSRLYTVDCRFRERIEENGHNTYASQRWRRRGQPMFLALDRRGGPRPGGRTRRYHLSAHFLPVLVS
AF4-AF9 inh = blocks AF4 peptide binding to human AF9. AlphaScreen, biotin-AF4 peptide binding to FLAG-AF9. actives 0.47% (n = 350,000). AID 651704. P42568. inhibition, % at 10 µM;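 active = every replicate reaching a set inhibition limit, whatever the replicate mean, cut at about 25% in these data; inconclusive = mean inhibition reaches that limit but some replicates miss it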;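 note: 0% = plate neutral control median and 100% = total signal loss; the record names both 10 and 1 µM as test concentration; the first replicate is given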
Target sequence (P42568 whole entry, looked up): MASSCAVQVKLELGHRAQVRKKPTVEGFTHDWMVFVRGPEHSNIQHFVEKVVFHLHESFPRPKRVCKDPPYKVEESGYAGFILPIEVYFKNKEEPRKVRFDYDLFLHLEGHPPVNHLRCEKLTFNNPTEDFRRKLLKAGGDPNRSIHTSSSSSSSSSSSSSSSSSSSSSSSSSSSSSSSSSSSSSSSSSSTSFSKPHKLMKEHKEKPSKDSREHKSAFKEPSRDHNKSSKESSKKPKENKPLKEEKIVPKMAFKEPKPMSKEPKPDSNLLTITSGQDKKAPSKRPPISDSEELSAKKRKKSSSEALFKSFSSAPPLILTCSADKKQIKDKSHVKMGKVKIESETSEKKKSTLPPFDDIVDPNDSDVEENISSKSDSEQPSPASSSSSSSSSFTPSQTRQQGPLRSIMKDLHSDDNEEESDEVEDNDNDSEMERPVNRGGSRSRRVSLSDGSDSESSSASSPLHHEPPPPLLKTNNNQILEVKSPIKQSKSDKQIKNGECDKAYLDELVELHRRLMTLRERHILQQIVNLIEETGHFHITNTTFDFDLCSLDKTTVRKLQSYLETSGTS
T cruzi inh = blocks replication of Trypanosoma cruzi | T. cruzi beta-gal in NIH3T3, luminescence, 90 h | inhibition, % (no concentration beside the values) | actives 1.4% (n = 300,000) | AID 1885;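 active = mean inhibition across valid replicates above about 55%, limit read from the data; inconclusive = mean below that limit but half or more replicates reach it; inactive = mean below it, under half of replicates reach it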;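 note: signal also drops with host cell toxicity which is not excluded here; 0% = plate median of DMSO wells and 100% = zero luminescence signal; higher percent means less beta-gal luminescence so fewer parasites; stock transfer was 50 nL into about 50 µL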
RanGTP-Impb inh = inhibitors of RanGTP-importin-beta interaction, primary screen, biochemical, FRET, CFP-Ran, YFP-importin-beta, homogeneous. cell-free CFP-Ran/YFP-importin-beta FRET ratio. inhibition, % (test concentration not listed). actives 1.1% (n = 300,000). AID 2216;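 active = most replicates above 15%; inconclusive = exactly half above 15%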;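 note: 0% = DMSO wells and 100% = Ran loaded with GDP instead of GTP; wells of about 40 µL received 100 nL stock; the first replicate is given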
rRNA inh HTS = inhibitors of bacterial rRNA selective over humanized ribosomes | E. coli WT GFP vs humanized-ribosome RFP mutants, fluorescence, 24 h; stronger effect = lower value; DMSO median 0, no signal -100 | GFP signal change (wild-type ribosome), % (test concentration not listed) | actives 1.6% (n = 350,000) | AID 720706;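 active = significant combined selectivity score with lowered wild-type GFP, culture density cut under 30%, mutant RFP and density less affected; inactive = any of these conditions unmet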; note: one replicate is shown; some compounds called inactive have numbers as strong as hits
Calb FLC = C. albicans growth modulation with fluconazole. AID 1979. growth inhibition, % (test concentration not listed). C. albicans CaCi-2 (fluconazole-resistant clinical isolate) + fluconazole, Alamar Blue growth, 48 h. actives 0.57% (n = 300,000);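 active = most replicates above 75%; inconclusive = exactly half above 75%; inactive = most below 75%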;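 note: all wells also contain fluconazole at 8 µg/ml as a sub-toxic cotreatment; 0% = median of DMSO wells and 100% = median of geldanamycin control wells; wells of about 8 µL received 7.5 nL stock; the first replicate is given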
Beta cell apopt = beta cell apoptosis inhibition. INS-1E cytokine-induced death, ATP luminescence, 48 h; percent of positive-control rescue, neutral wells zero. protection from apoptosis, % (concentration not given with the values). actives 0.8% (n = 300,000);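 active = all replicates at 75% or more, or half of them and the mean; inconclusive = half reach 75% but not the mean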;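 note: 0% = cytokine-treated negative control wells and 100% = positive control rescue; higher means more ATP so stronger rescue from cytokine killing; wells of about 40 µL received 100 nL stock; the first replicate is given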
ALR inh = inhibitors of human sulfhydryl oxidase ALR | purified ALR, DTT oxidation, H2O2 HRP-luminol luminescence | inhibition, % (test concentration not listed) | AID 485317 | actives 3.8% (n = 290,000);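 active = mean and each replicate at 75% or more; inconclusive = only one of the two met; inactive = neither met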;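 note: stock transfer was 7.5 nL into about 7.5 µL; 0% = neutral wells and 100% = wells with inactivated enzyme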
Target sequence (P55789 whole entry, looked up): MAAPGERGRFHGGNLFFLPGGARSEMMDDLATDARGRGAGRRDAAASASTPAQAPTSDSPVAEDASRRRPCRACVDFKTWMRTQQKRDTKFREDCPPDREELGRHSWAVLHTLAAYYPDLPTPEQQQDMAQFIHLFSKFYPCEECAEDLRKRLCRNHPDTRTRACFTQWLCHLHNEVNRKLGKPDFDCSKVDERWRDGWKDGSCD
rRNA inh HTS OD600 = second read-out of rRNA inh HTS, no call of its own (marks repeat the call); OD600 change, %; measured here: OD600 growth;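 optical density of the mix in the first replicate; 0 = DMSO median and -100 = no signal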
rRNA inh HTS RFP = second read-out of rRNA inh HTS, no call of its own (marks repeat the call); RFP signal change, %; measured here: RFP humanized mutant strains;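 first replicate; 0 = DMSO median and -100 = no signal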
Numbers without * were called inactive; i = inactive; ? = inconclusive; · = not tested or not shown.

Values in the order – FGF22 binding	AF4-AF9 inh	T cruzi inh	RanGTP-Impb inh	rRNA inh HTS	rRNA inh HTS OD600	rRNA inh HTS RFP	Calb FLC	Beta cell apopt	ALR inh
Cn1c(=O)c2cc(S(=O)(=O)NCCC(=O)NCCC3=CCCCC3)ccc2n(C)c1=O
→ i	-2.8	-30	4.8	7	4	-1.0	0	0	-6
CC1(C)Cc2c(c(=S)nc(-c3ccccc3)n2CCN2CCOCC2)CO1
→ ·	·	2	-1.3	·	·	·	?	-3	97*
COc1ccc(CCNC2=C(Cl)C(=O)N(CCc3ccc(OC)c(OC)c3)C2=O)cc1OC
→ ·	·	16	-3.7	·	·	·	0	3	7
O=S(=O)(c1ccc2ccccc2c1)N1CCN(S(=O)(=O)N2CCCCC2)CC1
→ ·	·	-2	0.0	·	·	·	12	0	-8
COc1ccccc1-n1cnc2cc(NC(=O)c3ccco3)ccc21
→ i	13	3	6.7	-15	-2	-3.6	1	19	-7
COc1cc(C2Nc3ccc4ncccc4c3C3=C2C(=O)CCC3)cc(OC)c1O (centres undefined)
→ ·	·	2	3.7	·	·	·	30	-8	·
CC(=O)c1ccc(Nc2cc(C)nc3nc(C)nn23)cc1
→ i	1.5	-2	-1.1	9	2	1.4	14	-1	-10
CCN(CC)S(=O)(=O)c1ccc(OC)c(NC(=O)c2cc(C)on2)c1
→ i	-0.9	-1	?	21	25	4.0	0	3	-11
CCN(CC(=O)NC1CCS(=O)(=O)C1)S(=O)(=O)c1ccc2ccccc2c1 (centres undefined)
→ i	-3.4	-17	-3.1	·	·	·	4	-2	-15
CCc1cccc(CC)c1NC(=S)N(CCN(C)C)C(C)c1cccnc1 (centres undefined)
→ i	-1.0	19	-0.4	9	7	5.0	7	-7	3
CCOC(=O)N1CCN(S(=O)(=O)c2cc3c(cc2C)NC(=O)CO3)CC1
→ ·	·	-1	-0.1	·	·	·	4	-7	·
COc1ccccc1C1CCCN1Cc1nc(-c2cc3c(cc2Cl)OCO3)oc1C (centres undefined)
→ i	12	42	-2.2	-7	-7	-1.8	-18	12	-1
Cc1cccc(N(CC(=O)NC(C)C)C(=O)CCC(=O)Nc2ccccn2)c1
→ i	-2.2	-12	4.2	6	8	-2.2	5	2	3
Cc1cc(C(=O)NC2Cc3ccccc3C2)c(C)o1
→ i	-6.9	-11	-0.4	4	9	-4.9	3	-6	8
COc1ccc(OC)c(Nc2nc(N)nc(CSc3nnc(N)s3)n2)c1
→ i	-0.1	12	?	12	11	-9.7	-13	-3	-30
CCOc1ccc(-c2nnc(SCc3nc4ccccc4[nH]3)n2N)cc1
→ ·	·	11	1.7	·	·	·	-6	5	40
CCOC(=O)c1ccc(N2C(=O)C3CC=C(C)CC3C2=O)cc1 (centres undefined)
→ ·	·	22	-0.8	·	·	·	-7	3	-3
Cc1ccc2nc(NNC(=O)c3ccc4c(c3)OCCO4)sc2c1
→ i	0.8	-6	-2.3	-56	-76	-16	-1	·	61
COC(=O)N/N=C/c1cc(N=Nc2ccccc2)ccc1O
→ i	-1.4	7	-2.9	1	-5	-3.0	1	-10	3
COc1ccc(-c2ccnc(SCC(=O)Nc3ccccn3)n2)cc1
→ ·	·	6	2.5	·	·	·	0	-11	-18
CC1(C)C(=O)Nc2ccccc2N1C(=O)COC(=O)C1CCCCC1
→ ·	·	2	1.0	·	·	·	-13	2	-9
Fc1ccc(C2=NOC(c3nnc(-c4ccccc4)o3)C2)cc1 (centres undefined)
→ i	-12	14	-1.4	6	8	4.2	18	1	·
CNC(=S)N/N=C/c1c(Cl)cccc1Cl
→ i	0.8	2	1.1	3	-2	-1.4	-26	-1	1
CC(C)=CCc1cc(-c2oc3cc(O)cc(O)c3c(=O)c2O)ccc1O
→ i	35*	5	-2.2	·	·	·	-10	-8	61
CC(=O)Nc1cccc(OCC(=O)Nc2ccccc2)c1
→ ·	·	-17	0.3	·	·	·	-2	-7	-2
CCOc1ccc(Nc2cc3n(c(=O)n2)CCc2cc(OC)c(OC)cc2-3)cc1
→ i	3.7	-5	-4.1	-4	-18	-4.4	-24	14	-14
Cc1cc(C)c2c(CCl)cc(=O)oc2c1
→ i	1.6	-6	-5.9	-4	-2	-2.6	6	-4	15
Cc1ccc(/C=c2\sc3nc(-c4cccnc4)nn3c2=O)cc1
→ ·	·	-22	6.1	·	·	·	16	-7	91*
CCCc1cc(=O)[nH]c(SCc2ccc(Cl)cc2)n1
→ ·	·	-3	4.4	·	·	·	-6	-2	-7
CCCn1c2ccc(C)cc2c2nnc(SCCN3CCCCC3)nc21
→ i	-0.3	39	-4.4	-1	6	1.6	-8	·	·

Rewritten with each value named: 2 of the compounds above
compound: Cn1c(=O)c2cc(S(=O)(=O)NCCC(=O)NCCC3=CCCCC3)ccc2n(C)c1=O
  FGF22 binding = i
  AF4-AF9 inh = -2.8
  T cruzi inh = -30
  RanGTP-Impb inh = 4.8
  rRNA inh HTS = 7
  rRNA inh HTS OD600 = 4
  rRNA inh HTS RFP = -1.0
  Calb FLC = 0
  Beta cell apopt = 0
  ALR inh = -6
compound: CCN(CC)S(=O)(=O)c1ccc(OC)c(NC(=O)c2cc(C)on2)c1
  FGF22 binding = i
  AF4-AF9 inh = -0.9
  T cruzi inh = -1
  RanGTP-Impb inh = ?
  rRNA inh HTS = 21
  rRNA inh HTS OD600 = 25
  rRNA inh HTS RFP = 4.0
  Calb FLC = 0
  Beta cell apopt = 3
  ALR inh = -11

Next results follow:
Values in the order – FGF22 binding	AF4-AF9 inh	T cruzi inh	RanGTP-Impb inh	rRNA inh HTS	rRNA inh HTS OD600	rRNA inh HTS RFP	Calb FLC	Beta cell apopt	ALR inh
CN(C)c1ccc(/C=N/n2c(-c3cccnc3)n[nH]c2=S)cc1
→ i	-2.4	2	2.0	11	11	1.7	-2	2	98*
NC(=O)c1nsc(C(=O)N(CCCN2CCOCC2)C(C(=O)NC2CCCCC2)c2ccc(Cl)cc2)c1N (centres undefined)
→ i	-0.1	18	-5.5	·	·	·	2	-5	1
O=C(CCN1C(=O)c2ccccc2S1(=O)=O)Nc1ccc2c(c1)OCCO2
→ i	6.6	7	0.2	3	3	0.7	-1	6	·
O=C(CCC(=O)N1CCN(c2cccc(Cl)c2)CC1)N1CCN(c2ccccc2)CC1
→ i	-0.4	9	5.5	-23	-34	-2.3	9	1	98*
C/C(=N\NC(=S)NC1CCCCC1)c1cccc(Br)c1
→ i	-1.0	18	0.6	7	4	-7.0	-29	·	3
CCN(c1ccccc1)S(=O)(=O)c1ccc(C(=O)N2CCN(c3ccccc3)CC2)cc1
→ i	4.6	·	·	0	-3	7.8	·	-8	-1
NC(=O)N1CC(O)CC1C(=O)Nc1ccc(Cl)c(Cl)c1 (centres undefined)
→ ·	·	-18	?	·	·	·	-1	1	5
Cc1ccc(C(=O)Oc2cc(C)n(C)c(=O)c2)cc1
→ ·	·	0	-1.0	·	·	·	-6	-6	56
COC(=O)c1cc(OC)c(OC)cc1NC(=O)Cc1ccccc1[N+](=O)[O-]
→ ·	·	12	0.2	·	·	·	-7	-2	3
C/C(=N\Nc1nc(C)cc(=O)[nH]1)C1CC1
→ i	-1.4	-6	-1.2	5	10	0.3	-4	3	-16
COc1ccc(-c2c(-c3cc(OC)cc(OC)c3)n(C)c3ccc(-c4cnc(N)nc4)cc23)cc1
→ i	-0.3	·	·	19	16	-0.7	·	15	-8
COc1ccccc1CN1C[C@@H]2C[C@@H](c3ccccc3OC)N3CCC[C@@]23C1=O
→ i	6.7	3	1.4	-4	-1	0.1	-10	-5	1
CCCCS(=O)(=O)N1CCCC(C(=O)Oc2ccccc2)C1 (centres undefined)
→ i	1.0	-17	5.8	-8	-2	-2.1	-4	-2	11
CN(C)/C=N/c1sc2c(c1C#N)CCCCC2
→ i	6.3	19	2.6	12	-2	-1.5	1	-8	59
CCSc1nncn1/N=C/c1ccc(OC)c(OC)c1
→ ·	·	-9	0.7	·	·	·	-5	-5	-10
c1ccc(CCc2nc(-c3ccccc3)no2)cc1
→ ·	·	7	2.3	·	·	·	-4	2	-2
CC(C)C(c1nnnn1CC1CCCO1)N1CCN(C2CCCC2)CC1 (centres undefined)
→ ·	·	-8	-0.8	·	·	·	-8	0	1
O=C(C1CC1)N1CCN(c2ccc([N+](=O)[O-])cc2-n2cccc2)CC1
→ i	14	21	4.7	-30*	-14*	1.6*	23	-4	-22
O=C(NNC(=O)c1ccc(Br)s1)c1ccc(F)c(S(=O)(=O)N2CCOCC2)c1
→ i	1.9	·	·	-5	-2	1.1	·	6	10
COc1ccc(N(CC(=O)N2CCN(c3ccccc3F)CC2)S(=O)(=O)c2c(C)n[nH]c2C)cc1
→ i	0.5	2	-0.9	-12	-28	2.4	-2	-1	-4
CC(C)(C)OC(=O)N1CC(O)CC1C(=O)OCC(=O)c1ccc(Cl)cc1 (centres undefined)
→ ·	-6.6	-7	4.7	·	·	·	1	·	·
COc1ccc(OCc2cnc(Cl)s2)cc1
→ ·	·	-6	4.4	·	·	·	-6	-1	-7
CCC(C)[C@H](NC(=O)c1cc2cc(Cl)ccc2n1C)C(=O)N1CCC[C@H]1C(=O)O (some centres undefined)
→ i	0.1	-14	-1.3	·	·	·	-3	-2	-10
Cc1nc2c(c(C)nn2-c2ccccc2)c(C)c1CCC(=O)Nc1ccc(CN2CCCC2)cc1
→ i	15	38	2.6	-4	-2	18	4	24	-2
CCn1c2ccccc2n2c(=O)c(=O)n(CC(=O)Nc3ccc(C(C)C)cc3)nc12
→ ·	·	8	4.1	·	·	·	31	·	-5
CC(C)Nc1nc(SCC(=O)Nc2ccccc2)nc(N2CCOCC2)n1
→ ·	·	11	-1.4	·	·	·	-2	-4	-3
CCn1c(COc2ccccc2)nnc1SCc1ccc(C#N)cc1
→ ·	·	16	1.1	·	·	·	-25	1	-3
CC(=O)Nc1cc2c(cc1C(=O)C(C)C)OCCO2
→ ·	·	12	4.8	·	·	·	-18	-5	·
O=C(Nc1ccccc1O)c1csc2c1CCCC2
→ i	-12	-4	3.2	14	11	7.0	-4	-9	1
O=C(NCc1ccc2c(c1)OCO2)c1ccc(-c2ccc(Cl)cc2)o1
→ ·	·	15	-4.7	·	·	·	-24	4	-6

Further structures.
Values in the order – FGF22 binding	AF4-AF9 inh	T cruzi inh	RanGTP-Impb inh	rRNA inh HTS	rRNA inh HTS OD600	rRNA inh HTS RFP	Calb FLC	Beta cell apopt	ALR inh
CC(C(=O)N1CCN(Cc2ccccc2)CC1)n1ncn2cccc2c1=O (centres undefined)
→ i	-23	-17	1.8	0	7	-4.8	-4	0	-6
CCOc1ccc(NC(=O)NC2(C(=O)NCc3ccco3)CCCCC2)cc1
→ i	-11	-5	-0.9	2	14	1.6	-3	5	1
Cc1cc(C)cc(OCc2nnc(SCC(=O)OC3CCCCC3)o2)c1
→ ·	·	-14	-3.2	7	10	3.1	25	-3	-9
CC#CC(=O)N1CCC(CCC(=O)N(C)Cc2ccccc2)CC1
→ i	0.7	2	2.4	-5	-4	1.1	-4	·	3

Screening data: PubChem, Broad Institute

A portion of the library (hit frequency here may not be typical).
